Beta2AR agonist: human beta-2 adrenergic receptor agonism by FAP | Am2.2-beta2AR cells, FAP receptor internalization, flow cytometry; reference of the scale not given here | response, % (no concentration beside the values) | hit rate 0.43% among 340,000 | AID 504454;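 active means response above a set limit, near 3 SD of response in nonfluorescent compounds, cut at about 42% in these data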;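 further: stock transfer was 100 nL into about 11 µL; a reference agonist was the positive control; negative values mostly stem from fluorescent compounds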
Target sequence (P07550 whole entry, looked up): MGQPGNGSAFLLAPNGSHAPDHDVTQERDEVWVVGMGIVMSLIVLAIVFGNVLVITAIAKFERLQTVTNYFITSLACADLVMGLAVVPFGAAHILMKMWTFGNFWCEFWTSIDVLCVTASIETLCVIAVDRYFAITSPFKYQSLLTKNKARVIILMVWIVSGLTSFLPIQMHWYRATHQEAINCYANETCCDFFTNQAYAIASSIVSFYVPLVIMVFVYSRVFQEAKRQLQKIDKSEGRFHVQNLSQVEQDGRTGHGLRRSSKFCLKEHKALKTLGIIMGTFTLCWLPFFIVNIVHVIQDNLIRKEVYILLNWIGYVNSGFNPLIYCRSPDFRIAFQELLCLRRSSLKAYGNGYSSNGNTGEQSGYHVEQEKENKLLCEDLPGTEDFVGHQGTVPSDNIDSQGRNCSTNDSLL
Bfl-1 A1 inh: inhibitors of the anti-apoptotic protein A1, read as caspase activation. MEF A1-2A-BIM cells, Caspase-Glo 3/7 luminescence, 3 h; percent of clofoctol response, vehicle zero. caspase activation, % (concentration not given with the values). hit rate 0.066% among 330,000;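 active means over half of replicate activation scores above 10%, or exactly half above 10 with the replicate mean above 10; inconclusive means replicate mean below 10 yet half the replicates above 10; inactive means over half of replicates below 10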;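 further: wells of about 30 µL received 50 nL stock; many hits fall short of the cut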
Ecoli growth: inhibitors of Escherichia coli growth; OD600, 23 h; hits give low values; OD600 absorbance (concentration not given with the values); hit rate 0.21% among 330,000; AID 1053175;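 active means OD600 absorbance below the run mean of sample wells minus 3.6 SD, in any replicate, cut at about 0.56 in these data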;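 further: stock transfer was 300 nL into about 60 µL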
HNF4A DNA FP: change in binding of human HNF4 alpha to DNA | AID 1224865 | activity change, % at 10 µM | hit rate 0.3% among 360,000 | HNF4a-FITC DNA binding, fluorescence polarization, 1 h | P41235; in the data active means activity change above about 30%, passing the limit was not always enough;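 further: controls were the assay level and a saturating level of protein; the project sought stronger binding though the title names inhibitors; some compounds called inactive have numbers as strong as hits; positive values seem to mean higher polarization but the record does not say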
Vif TR-FRET: inhibitors of Vif binding to APOBEC3G peptide, primary screen, biochemical, TR-FRET, GST-Vif 1-94, biotin-A3G peptide, dose response retest (AID 1117319); TR-FRET GST-Vif / biotin-A3G peptide binding; higher % means a stronger effect; test concentration not given here; strong numbers were not always called active; one-dose inhibition, %; IC50 in µM for titrated hits; hit rate 0.57% among 260,000;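 active means above the screen mean plus three standard deviations and confirmed in dose response; inconclusive means results disagree or hit not tested in dose response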;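 further: Vif residues 1-94 fused to GST binding biotinylated APOBEC3G peptide 110-148; 0% = full assay without inhibitor and 100% = GST in place of GST-Vif; retest series ran down from 100 µM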
LANA-H2B inh: blocks KSHV LANA binding to histone H2A/H2B; Q9QR71; cell-free LANA-H2A/H2B peptide, fluorescence polarization; inhibition, % (no concentration beside the values); hit rate 0.6% among 320,000; in the data active means inhibition mostly above about 10%, no sharp cut-off; inactive means mostly below about 6.7%;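 further: stock transfer was 7.5 nL into about 10 µL; 0% = median of vehicle wells and 100% = median of positive control wells; one replicate is shown; the record names a cut of 25% in any replicate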
UCH37 inh: inhibitors of human deubiquitinating enzyme UCH37; Q9Y5K5; inhibition, % (no concentration beside the values); purified proteasome/UCH37, Ub-AMC cleavage fluorescence; hit rate 0.33% among 330,000;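 active means mean of two replicates above 20%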;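 further: 0% = compound-free wells with enzyme and 100% = wells lacking proteasome; stock transfer was 100 nL into about 20 µL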
Target sequence (Q9Y5K5 whole entry, looked up): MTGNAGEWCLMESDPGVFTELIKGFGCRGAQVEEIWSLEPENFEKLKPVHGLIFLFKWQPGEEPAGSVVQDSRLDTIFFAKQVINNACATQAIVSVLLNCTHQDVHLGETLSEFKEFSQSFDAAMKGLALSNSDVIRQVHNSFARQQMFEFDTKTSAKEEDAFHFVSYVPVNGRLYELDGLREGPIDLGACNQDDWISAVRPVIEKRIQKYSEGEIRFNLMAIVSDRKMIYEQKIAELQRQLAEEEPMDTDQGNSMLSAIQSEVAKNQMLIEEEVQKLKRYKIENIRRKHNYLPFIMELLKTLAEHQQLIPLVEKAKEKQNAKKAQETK
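system = Proteasome-associated human UCH37 deubiquitinase | amount = 0.15 nM proteasome as dispensed | medium = pH 7.4 Tris-HCl (50 mM) with ovalbumin, ATP-MgCl2, DTT | incubation = 30 min preincubation with enzyme, 25 min cleavage at room temperature | detection = AMC fluorescence 355/460 nm | read-out basis = percent inhibition | controls = no-proteasome and no-compound wells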
Active calls of the source: *; i = inactive; u = inconclusive; x = no result given; & = joins results of further samples.

SMILES	Beta2AR agonist	Bfl-1 A1 inh	Ecoli growth	HNF4A DNA FP	Vif TR-FRET	LANA-H2B inh	UCH37 inh
CC(=O)Nc1ccc(NC2=C/C(=N/S(=O)(=O)c3cccs3)c3ccccc3C2=O)cc1	31	-0.3	x	-0.8	8%	1.5	x
CCc1nnc(NC(=O)C2CCN(S(=O)(=O)Cc3ccccc3)CC2)s1	-3	-0.5	0.73	1.9	14%	-30	-0.7
CCn1cc(CN2CCN(CCc3ccccc3)C(CCO)C2)c(C)n1 (stereo not drawn)	6	-0.2	0.71	0.3	-13%	-4.8	0.2
COc1ccccc1CC(=O)Nc1cccc2c1CCCC2	6	-1.0	0.7	-1.6	3%	4.1	3.6
COC(=O)C1=NN(C(=O)c2ccccc2)C(O)(c2ccc([N+](=O)[O-])cc2)C1 (stereo not drawn)	5	-1.5	0.63	1.6	9%	-0.5	3.7
Cn1c(=O)c2c(nc(N3CCCCC3)n2CC(O)COc2ccccc2)n(C)c1=O (stereo not drawn)	2	0.9	0.69	-0.8	4%	-2.3	3.2
CCOC(=O)c1ccc(/C=C2/C=C(c3ccccc3)N(c3ccc(Cl)c(C(=O)O)c3)C2=O)cc1	-54	-0.1	0.7	-12	10%	0.0	-2.1
CS(=O)(=O)N(CC(=O)NCc1ccco1)c1cccc([N+](=O)[O-])c1	-2	0.5	0.65	-3.3	-19%	-4.9	-0.7
CCOc1ccccc1OCC(=O)Nc1ccc(S(=O)(=O)Nc2nc(C)cc(C)n2)cc1	18	0.1	0.74	0.2	7%	1.9	1.7
CC(=O)OCc1cc(-c2nc3ccccc3[nH]c2=O)nn1-c1ccc(Cl)cc1	-14	1.2	0.69	2.0	-13%	-0.9	-42
CCC1(C(=O)OC)NC(c2ccco2)C2C(=O)N(c3ccc(F)cc3)C(=O)C21 (stereo not drawn)	-4	0.5	0.66	0.2	-1%	3.2	2.5
Cc1c(C(=O)NC(=S)Nc2ccc(NC(=O)c3cccs3)cc2)cccc1[N+](=O)[O-]	-3	-0.3	0.74	1.9	20%	-1.8	5.2
CCc1ccc(CNC(=O)C2CCCN(c3nn4c(=O)cc(C)nc4s3)C2)cc1 (stereo not drawn)	-4	-0.3	0.78	-1.4	x	1.3	3.4
Cc1cc(Nc2cccc(Cl)n2)n(-c2ccccc2)n1	-20	0.7	0.63	-0.5	2%	1.8	-1.9
O=C1OC(c2ccccc2)=N/C1=C\C=C\c1ccco1	2	0.6	0.64	0.1	x	-1.7	13
COc1cccc(N(C(=O)c2ccn[nH]2)C2(C(=O)Nc3c(C)cccc3C)CCCCC2)c1	3	0.9	0.73	1.1	15%	84*	2.3
Cc1c(Cl)cccc1Nc1nc(N)nc(CSCCO)n1	3	x	0.72	-2.0	12%	x	x
O=C(CN1CCOCC1)Nc1ccc(NC(=O)c2ccccc2F)cc1	-3	-0.2	0.7	0.1	x	-1.4	7.1
Cc1ccc(CCNC(=O)C2CC(c3cccc(F)c3)=NO2)cc1 (stereo not drawn)	2	0.2	0.68	0.7	x	3.3	1.2
N#C/C(=C/c1cn(-c2ccccc2)nc1-c1cccc(OCc2ccc(F)cc2)c1)C(=O)NCCCn1ccnc1	18	0.0	0.68	-4.6	0%	1.2	-19
Cc1nnc(NCc2ccco2)s1	-3	-1.1	0.7	2.9	0%	-1.8	2.9
Cc1ccccc1C(=O)O/N=C(\N)c1ccc([N+](=O)[O-])cc1	0	0.4	0.69	3.6	x	0.8	6.6
COc1ccc2c(c1)NC1(O)c3ccccc3C(=O)C21O (stereo not drawn)	-1	0.6	0.69	-0.4	1%	0.3	0.2
COc1ccc(/C(=C/Nc2cccc(Br)c2)C(C)=O)cc1OC	2	-0.1	0.67	-8.2	x	3.6	3.4
COCCn1c(SCC(=O)Nc2cc(C)on2)nnc1C(C)C	4	-0.8	0.68	4.5	-4%	-0.4	4.9
COc1cc(OC)cc(-c2nnc(SCC(=O)Nc3ccc(C(=O)O)cc3)s2)c1	3	-1.4	0.69	3.6	-7%	7.1	-2.0
CN1CCN(c2ncc3c(n2)CC(c2ccccc2F)CC3=O)CC1 (stereo not drawn)	4	-0.6	0.68	1.5	4%	-5.5	1.5
CS(=O)(=O)Nc1ccc(C2=NN(C(=O)CCCC(=O)O)C(c3cccs3)C2)cc1 (stereo not drawn)	3	0.4	0.69	7.3	-12%	-1.0	i
CCc1cccc(NC(=O)C2CCN(c3ncnc4sc(C)c(C)c34)CC2)c1	2	0.0	0.7	5.7	x	-4.8	0.1
CCOC(=O)N1CCN(C(=O)C2CCCN(S(=O)(=O)c3ccc(OCC)cc3)C2)CC1 (stereo not drawn)	-5	1.3	0.7	0.2	5%	5.0	4.2
Cc1ccc(NCN2C(=O)C(=O)c3ccccc32)nc1	-8	-0.5	0.69	-3.5	x	-3.4	2.3
CCOc1ccc(-c2nc(CSc3nncs3)cs2)cc1OC	8	-0.3	0.64	1.2	-3%	-5.6	1.9
COc1cc(C2c3cc4c(cc3OC(NNC(N)=S)C2C)OCO4)cc(OC)c1OC (stereo not drawn)	24	x	x	-1.0	-4%	x	x
CC/C(=C\C(=O)c1ccncc1)Nc1ccc(Br)cc1	5	-0.8	x	1.0	1%	6.1	6.3
O=C(Nc1ccc(Cc2ccncc2)cc1)c1ccc(Cl)c([N+](=O)[O-])c1	18	0.3	0.69	-1.9	u	x	0.3
Cc1cc(=O)cc(C)n1-c1ccccc1N1CCOCC1	1	-0.5	0.67	1.0	-5%	-2.1	0.5
CCn1c(CNC(=O)c2cccs2)nnc1SCC(=O)Nc1ccc(Cl)cc1	-3	0.2	0.67	4.4	13%	-0.4	2.1
O=c1[nH]c(NCc2ccco2)nnc1Cc1ccccc1Cl	-7	0.9	0.72	1.3	u	-1.3	2.5
CCOC(=O)C1CCCCN1C(=O)c1ccc2nc(Cc3ccc(OC)cc3)oc2c1 (stereo not drawn)	8	-0.2	0.67	-4.8	x	-4.9	-2.9
COC(=O)c1ccc(NCc2cc(O)ccc2O)cc1O	13	x	x	-2.5	-1%	x	x
COC(=O)CSC(=S)N1CCCC(C)C1 (stereo not drawn)	-2	1.5	0.64	-3.7	-1%	2.7	1.1
CN(C)C(=O)c1ccc(NC(=O)c2cccnc2)cc1	-6	-3.2	0.67	-0.2	0%	-4.9	3.8
CN1C(=O)/C(=C2/C=Cc3ccccc3N2CCCS(=O)(=O)O)SC1=S	5	-0.2	0.72	6.5	-4%&1%	-4.2	24*
Nc1ncc2c(n1)CC(c1ccco1)CC2=O (stereo not drawn)	-1	-0.7	0.73	2.8	u	-5.3	-0.3
O=C(NNc1ncnc2c1cnn2-c1ccccc1)c1ccco1	1	0.5	0.71	-3.2	u	4.3	0.9
CSc1cccc(NC(=O)C2CCN(S(=O)(=O)c3cnc[nH]3)CC2)c1	19	1.5	0.64	4.1	5%	2.5	-1.9
Cc1ccc(-n2nc3c(=O)n(CC(=O)NCCC4=CCCCC4)nc(C)c3c2C)cc1	-1	3.9	0.75	2.9	-3%	-1.0	5.7
CCn1nnc(NC(=O)C(c2ccccc2)c2ccccc2)n1	3	0.0	0.7	1.1	x	1.0	3.1
O=C(Nc1ncn[nH]1)c1cc(S(=O)(=O)Nc2ccc(Cl)cc2)ccc1Cl	14	0.5	0.66	-4.2	12%	0.9	-0.3
COC(=O)c1c(NC(=O)CN2CCN(Cc3ccc4c(c3)OCO4)CC2)sc(C)c1C	20	-0.2	0.74	-2.7	-8%&-5%	3.4	2.3

Next results follow:
SMILES	Beta2AR agonist	Bfl-1 A1 inh	Ecoli growth	HNF4A DNA FP	Vif TR-FRET	LANA-H2B inh	UCH37 inh
CCCCN(CCCC)C(=O)C[n+]1cccc(/C=N/O)c1	0	-0.4	x	1.0	-3%	3.7	x
CC(C)CC(=O)N[C@H](C(=O)N[C@H](C(=O)N[C@@H](CC(C)C)[C@@H](O)CC(=O)N[C@@H](C)C(=O)N[C@@H](CC(C)C)[C@@H](O)CC(=O)O)C(C)C)C(C)C	-8	x	x	-4.3&1.6	-2%	x	-0.4
COc1ccc(C(C)=O)cc1CSc1nnc(-c2ccncc2)n1C	-2	-0.1	0.7	-2.9	-3%	-7.8	4.1
COc1ccc(C(=O)NCc2ccccc2CN2CCCC2)cc1S(=O)(=O)Nc1ccc(C)cc1	9	0.6	0.7	4.9	-9%	-2.0	-0.2
CN1Cc2c(N3CCOCC3)nc(SCCC#N)c(C#N)c2CC1(C)C	0	0.7	0.64	-2.0	-5%	-0.1	-1.7
Cc1ccc(OCC(=O)NCCCNC(=O)c2ccc(C)nc2)cc1	-9	-0.2	0.68	4.0	x	-11	5.3
CC(C)[C@H](NC(=O)N1c2ccccc2NC(=O)[C@@H]1C(C)C)C(=O)N[C@@H](Cc1c[nH]c2ccccc12)C(=O)O	5	0.7	0.75	0.2	x	-0.7	-1.5
CCOC(=O)Cc1csc(NC(=O)c2cc(C)on2)n1	-4	-0.1	0.7	2.1	x	4.0	4.8
Cc1ccccc1S(=O)(=O)Nc1nc2ccccc2nc1N1CCOCC1	6	-0.2	0.69	-1.3	-5%	6.1	4.7
CCC(C)(C)NC(=O)Cc1ccc(C)cc1	-5	-0.6	0.73	0.7	-11%	-1.9	2.4
CCn1c(CC(=O)Nc2ccccc2)nnc1SCC(=O)N1CCOCC1	-7	-0.7	0.73	-1.0	-3%	0.0	0.4
COc1ccc(NC(=O)c2cccs2)c([N+](=O)[O-])c1	-6	-2.8	0.72	0.1	1%	-0.5	2.8
CCCCCCCOc1ccc(C(=O)Nc2cccnc2)cc1	-7	0.1	0.68	1.7	x	14	7.1
CSC1=NCCN1C(=O)c1c(-c2ccccc2Cl)noc1C	1	0.5	0.73	7.1	0%	0.9	0.1
CC(NC(=O)CC1SC(N)=NC1=O)c1ccccc1 (stereo not drawn)	-1	0.2	0.67	2.1	-2%	-0.6	-0.9
CC(C)CC(NC(N)=O)C(=O)Nc1ccc(Oc2ccccc2)cc1 (stereo not drawn)	2	0.1	0.66	-3.0	2%	-2.3	0.0
CC(=O)Nc1ccc(CN2CCN(c3cccc(C(F)(F)F)c3)CC2)cc1	6	0.3	0.72	0.1	-4%	-1.6	4.5
O=S(=O)(c1ccc(=S)[nH]c1)N1CCN(Cc2ccccc2)CC1	-3	-2.5	0.71	0.9	-8%	-3.5	6.2
CN1CCN(C(=O)C2=C[C@@H](C3CCCCC3)C[C@@H](OCCCCO)O2)CC1	1	-0.1	x	-0.7	x	3.2	2.2
COc1ccc(-c2sc3cc4c(cc3c2C#Cc2ccc(N)cc2)OCO4)cc1	9	-0.4	0.71	0.8	x	0.7	-52
CC(C)Sc1nc2c(cnn2-c2ccccc2)c(=O)[nH]1	2	0.4	0.79	-1.6	4%	-0.7	3.4

Quoted from the entries so far for reference:
SMILES	Beta2AR agonist	Bfl-1 A1 inh	Ecoli growth	HNF4A DNA FP	Vif TR-FRET	LANA-H2B inh	UCH37 inh
COc1ccc(-c2sc3cc4c(cc3c2C#Cc2ccc(N)cc2)OCO4)cc1	9	-0.4	0.71	0.8	x	0.7	-52
CC(C)Sc1nc2c(cnn2-c2ccccc2)c(=O)[nH]1	2	0.4	0.79	-1.6	4%	-0.7	3.4

Assay outcomes (PubChem BioAssay)

Hits appear at their usual frequency; 2.1% or so of the library scored in one or more.
